# fixLJ activator: activators of Burkholderia fixLJ two-component system, primary screen, B. multivorans, GFP reporter; B. multivorans fixK-promoter GFP reporter, 18 h; hits give high values; z-score (test concentration not listed); 29,000 compounds, 0.3% hits;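 active = replicate mean overnight rise in green fluorescent reporter signal, 3 or more SD over negative controls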;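 also: score is relative to vehicle wells of the plate; 300 nL library stock went into each well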
# The depositor's hits bear a star. This is a subset (hit frequency here may not be typical).
SMILES,fixLJ activator
CC(C)(Oc1ccc(Cl)cc1)C(=O)Nc1ccc(-c2nc3ncccc3o2)cc1,-3.2
Cc1cc(C)nc(CCNC(=O)C2CC(=O)N(C)C2(C)C)n1 (stereo not drawn),-1.1
CCCCOc1ccccc1C1CC(=O)Nc2ccc3ccccc3c21 (stereo not drawn),0.23
O=C(Nc1ccc(F)cc1)c1csc2c1CCCCC2,-0.03
O=C(c1[nH]ncc1Cl)N1CC(c2ccccc2)C2C1C1CCN2CC1 (stereo not drawn),-0.45
Cc1cc(Br)ccc1NC(=O)C1CCN(S(=O)(=O)c2ccc(Br)s2)CC1,0.11
CC(C)OCCCNC(=O)c1cc2c(-c3ccc(Cl)cc3)nn(C)c2s1,1.6
Cc1cccc(N2CCN(C(=O)c3cc4c(=O)n(C)c5ccccc5c4s3)CC2C)c1 (stereo not drawn),-0.23
N#Cc1ccc(CN2CCC(c3n[nH]c(=O)n3Cc3ccccc3)CC2)cc1,0.42
Cc1cccc(C)c1Oc1ncccc1CNC(=O)c1ccn2nnnc2c1,-0.43
Cc1oc(-c2cc(C(F)(F)F)on2)cc1S(=O)(=O)NC(C)Cc1cccnc1 (stereo not drawn),-1.3
Cc1c2cnn(CC(=O)O)c(=O)c2c(C)n1Cc1cccc(Cl)c1,0.51
CCCN1CC(NCc2cc(=O)c3c(C)ccc(C)c3[nH]2)CC1=O (stereo not drawn),-1.4
COc1ccc(CN2CCn3nc(CNc4cnccn4)cc3C2)cn1,-2.1
Cc1ccc(S(=O)(=O)N(CC(=O)Nc2ccc(Cl)cc2Cl)c2ccccc2C)cc1,1.1
COc1cc2c(cc1NC(=O)COc1ccc(Cl)cc1Br)oc1ccccc12,-1.2
O=C(c1cc2cc3ccc(Cl)cc3nc2o1)N1CCN(c2cccc(Cl)c2)CC1,-0.06
COc1ccc(C(NC(=O)c2cc(C)cc(C)c2)C2CC(O)C2)cn1 (stereo not drawn),0.96
CCOc1cccc(C(=O)NC2COCC2Cc2ccncc2)c1 (stereo not drawn),-1.2
Cc1ccc(-n2c(SCC(=O)Nc3cccc(C)c3)nc3c(oc4ccccc43)c2=O)cc1,0.98
Cc1cc(C)cc(NC(=O)CSc2oc(-c3ccccc3)nc2S(=O)(=O)c2ccccc2)c1,-1.3
CCc1ccc(-n2c(=O)c3c4c(sc3n(CC(=O)NCCCOC)c2=O)CCC4)cc1,-1.6
Cc1cccc(CC2(NC(=O)N3CCN(C4CCCC4)C(=O)C3)CC2)c1,-1.1
COc1ccc(Cn2c(SCC(=O)N3CCN(c4ccc(F)cc4)CC3)nc3ccccc32)cc1,-1.3
COCCCNC(=O)C1CCN(c2cc(C)nc3c(-c4ccc(OC)c(OC)c4)c(C)nn23)CC1,-0.82
Cc1ccc(N(CC(=O)NCCc2ccc(Cl)cc2)S(=O)(=O)N(C)C)cc1,1.2
CCCCSCCCNC(=O)c1cn(C)c2ccc(S(=O)(=O)N3CCCC3)cc2c1=O,1.6
O=C(NCc1ccc(F)cc1)c1cc2c(=O)n3ccccc3nc2s1,-0.21
CCCN(Cc1ccccc1C)C(=O)NC(CC(=O)O)C(C)C (stereo not drawn),-0.7
COc1cc(Cl)c(C)cc1Nc1nc2ccccc2n2cnnc12,0.48
O=S(=O)(NCc1csc(-c2ccccc2)n1)c1cccc(F)c1,-1.1
CCOc1ccc(C2CC(=O)c3c([nH]c(C(=O)OC4CCCCCC4)c3C)C2)cc1 (stereo not drawn),-1.9
Nc1c(C(=O)Nc2ccccc2Cl)c2ccccn2c1C(=O)c1ccccc1,0.59
CCC(=O)N1CCc2cc(S(=O)(=O)NCCC(=O)NC(C)c3ccccc3)ccc21 (stereo not drawn),-0.81
O=c1c2cc3c(cc2nc2sc(Nc4ccc(F)c(Cl)c4)nn12)OCO3,1.8
Cc1ccc2oc(=O)c3cc(C(=O)NCCCOC(C)C)sc3c2c1,-0.55
COCCNC(=O)c1ccc(OC2CCN(C(=O)C(C)O)CC2)c(Cl)c1 (stereo not drawn),-0.51
CCCS(=O)(=O)Nc1cccc(-c2cn3ccc(C)cc3n2)c1,-1.8
CCc1cc(N2CCCC(c3n[nH]c(=O)n3-c3ccccc3)C2)nc(C)n1 (stereo not drawn),-1.6
Cc1ccc(Cl)cc1N1CCN(C(=O)c2cc3c(-c4ccccc4F)nn(C)c3s2)CC1,-0.08
COc1ccc(-c2c(C#N)c(SCC(=O)Nc3ccc(C)cc3)nc(C)c2C(=O)Nc2ccccc2)cc1,2.9
O=C(NCc1ccco1)c1ccc2c(c1)N(Cc1ccccc1F)C(=O)c1ccccc1S2(=O)=O,-0.63
CCCc1nnc(NC(=O)CN2CCC(c3cccc(O)c3)CC2)s1,-0.78
O=C(CO)N1CCC2(CC1)OCCc1cc(C(=O)N3CCCC3)sc12,0.89
CC(C)Cn1nc(NC(=O)c2cccc(Cl)c2)c2cc3ccccc3nc21,-1.8
CC(C)C1CN(CCc2cn[nH]c2)CCC(=O)N1Cc1ccc(F)cc1 (stereo not drawn),0.6
Cn1c2ccccc2c2cnn(CC(=O)NCc3ccc(Cl)cc3)c(=O)c21,-1.9
Cn1cc(/C=C/c2nc3ccccc3c(=O)n2-c2ccccc2)c2ccccc21,0.07

# A different layout for 3 compounds above.
Molecule | fixLJ activator
CCc1cc(N2CCCC(c3n[nH]c(=O)n3-c3ccccc3)C2)nc(C)n1 (stereo not drawn) | -1.6
Cc1ccc(Cl)cc1N1CCN(C(=O)c2cc3c(-c4ccccc4F)nn(C)c3s2)CC1 | -0.08
COc1ccc(-c2c(C#N)c(SCC(=O)Nc3ccc(C)cc3)nc(C)c2C(=O)Nc2ccccc2)cc1 | 2.9

# Other compounds
SMILES,fixLJ activator
Cc1cc(C(=O)NC(CC(=O)O)c2ccccc2)cc(=O)[nH]1 (stereo not drawn),-2
C#CCSc1nc(-c2ccccc2)c2cc(Cl)ccc2n1,1.4
O=c1c2sc3ccccc3c2n(Cc2ccccc2)c(=O)n1CCc1ccccc1,-1.1
O=C(Cn1c(=O)n(CC2CCC(C(=O)NCCc3ccccc3)CC2)c(=O)c2ccccc21)Nc1cccc(F)c1 (stereo not drawn),-0.17
O=C(O)c1ccc(NC(=O)c2ccc(Br)c(S(=O)(=O)N3CCCC3)c2)cc1,-3.4
COc1ccc(N2CCN(CC(O)COc3ccc(C)cc3C)CC2)cc1 (stereo not drawn),-1.8
CCCOC(=O)c1c(C)oc2c1cc(NS(=O)(=O)c1ccc(OCC)cc1)c1ccccc12,-0.06
CNS(=O)(=O)CCNC(=O)Nc1cc(C(C)(C)C)nn1C,-0.66
COc1ccc(Cl)cc1NC(=O)CN(c1cccc(C)c1C)S(=O)(=O)c1ccccc1,0.32
Cn1cccc1CCNC(=O)c1cccc(-c2ccc(O)cc2)c1,0.1
Nc1ccc(O)cc1C(=O)NC1CCCN(Cc2ccccc2F)C1 (stereo not drawn),1.2
N#Cc1ccccc1N1CCN(C(=O)CC2=CSC3=NCCCN23)CC1=O,-1.1
Nc1ccc(S(=O)(=O)Nc2nccs2)cc1,-2.1
COc1cccc(NC(=O)Cn2c(=O)n(CCCCC(=O)NCCc3ccccc3)c(=O)c3ccccc32)c1,-1.3
CCN(CC)S(=O)(=O)c1ccc(NC(=O)[C@H](CSCc2ccccc2)N2Cc3ccccc3C2=O)cc1,1.9
CCc1nonc1NC(=O)c1oc2ccccc2c1C,-1.2
CC(=O)Nc1cc(NC(C)=O)cc(-c2nc3ccccc3[nH]2)c1,-0.23
Cc1cc(C)c(Cn2c(C)c(CNCc3ccccc3C)c(C(=O)O)c2C)c(C)c1,-0.57
CCCSc1ncnc2c1c(-c1ccccc1)cn2-c1ccccc1OC,1.1
Cc1ccccc1-c1nc(CS(=O)(=O)CC(=O)NCC(C)c2ccccc2)c(C)o1 (stereo not drawn),-0.3
O=C(NC12CC3CC(CC(C3)C1)C2)N1CCCN(C(=O)C2CCOCC2)CC1,-3.5
O=C(O)CNc1ccccc1C(=O)N1CCC(n2nnc3ccccc32)CC1,-0.24
CCc1ccc(NC(=O)COCc2cc(-c3ccc(F)cc3)on2)cc1,-0.12
O=C(Nc1cccc(C(F)(F)F)c1)Nc1ccc2snnc2c1,-6.8
COc1cccc(NS(=O)(=O)c2ccc3[nH]cc(C(=O)N(C)Cc4ccco4)c(=O)c3c2)c1,0.35
CCCN1CCN(Cc2nccn2C)C2CS(=O)(=O)CC21 (stereo not drawn),-1.4
Cc1ccc(S(=O)(=O)N2CCCC(c3nc4c(nnn4Cc4ccc(OC(F)(F)F)cc4)c(=O)[nH]3)C2)cc1 (stereo not drawn),0.15
CCOCCCNC(=O)C(c1ccc(OC)cc1)N(Cc1cccs1)C(=O)c1ccc(NC(C)=O)cc1 (stereo not drawn),-0.03
Cc1ccccc1OCC(O)Cn1c(=N)n(CCN2CCCCC2)c2ccccc21 (stereo not drawn),-1.4
Cc1cc2oc(C(=O)Nc3c(C)n(C)n(-c4ccccc4)c3=O)cc(=O)c2cc1C,-1.8
COCCCNc1nc2c(c(=O)n(C)c(=O)n2C)n1Cc1ccccc1,-0.43
CCc1ccc(-n2c(SCc3nc(-c4cc(OC)ccc4OC)no3)nnc2-c2ccccc2)cc1,-0.22
c1ccc(-c2noc(N3CCC4C(C3)OCc3cnnn34)n2)cc1 (stereo not drawn),-1.1
Cc1ccc(-c2csc3ncnc(Nc4ccc(C(=O)O)cc4)c23)cc1,-1.3
CCOc1cccc(C2CC(=O)Nc3cc4c(cc32)OCCO4)c1 (stereo not drawn),0.34
Cc1ccc2[nH]c(=O)c3cc(C(=O)NC4CCC(C)CC4)sc3c2c1 (stereo not drawn),-0.28
CCOC(=O)c1c(NC(=O)c2cc(=O)c3c(C)cc(C)cc3o2)sc(C)c1C,-0.61
Cc1cc(C(=O)NCc2n[nH]c(=O)[nH]2)cc2sc(N)nc12,-0.79
CCCN(CCC)CCCNC(=O)c1cc2c(=O)[nH]c3ccccc3c2n1C,-1
CN(CCCn1cccn1)c1cc(-c2ccc(F)cc2)nc2ccnn12,-0.3
CN1CCCN(CC(=O)N(C)Cc2cc(C3CC3)on2)CC1,-0.55
CCCOc1ccc(C(=O)Nc2ccc3nn(-c4ccc(OC)c(Cl)c4)nc3c2)cc1,-0.25
CCc1ccccc1N(C)C(=O)c1cc2c(=O)oc3ccccc3c2s1,-1.2
NC(=O)c1ccccc1O,-1.1
Cc1cccc(-c2nc(CN(CCN3CCOCC3)Cc3ccco3)c(C)o2)c1,0.05
CCOc1ccccc1NC(=O)CC(=O)N(C)Cc1ccnc2ccccc12,-0.51
Cc1ccc(-n2nc(CO)c(C(=O)NCCO)n2)cc1,-2.1
N=c1c(C(=O)NCC2CCCO2)cc2c(=O)n3ccccc3nc2n1CCCO (stereo not drawn),-0.5

# An excerpt of the results above, as a working copy:
SMILES,fixLJ activator
CCCOc1ccc(C(=O)Nc2ccc3nn(-c4ccc(OC)c(Cl)c4)nc3c2)cc1,-0.25
CCc1ccccc1N(C)C(=O)c1cc2c(=O)oc3ccccc3c2s1,-1.2
NC(=O)c1ccccc1O,-1.1
Cc1cccc(-c2nc(CN(CCN3CCOCC3)Cc3ccco3)c(C)o2)c1,0.05
CCOc1ccccc1NC(=O)CC(=O)N(C)Cc1ccnc2ccccc12,-0.51
Cc1ccc(-n2nc(CO)c(C(=O)NCCO)n2)cc1,-2.1
N=c1c(C(=O)NCC2CCCO2)cc2c(=O)n3ccccc3nc2n1CCCO (stereo not drawn),-0.5

# (continued)
SMILES,fixLJ activator
Cc1ccc2c(c1)NC(=O)c1cccnc1O2,-0.35
Cc1csc(SCC(=O)NCCc2noc(C3CCCO3)n2)n1 (stereo not drawn),0.28
CCOC(=O)c1ccc(NC(=O)CCCc2nc(-c3cc(OC)c(OC)c(OC)c3)no2)cc1,-0.1
CCOc1cccc(C(=O)Nc2ccc3oc(-c4cccnc4)nc3c2)c1,-1.1
CCCn1c(=O)n(-c2ccccc2)c(=O)c2sc3ccccc3c21,-1.3
CCCCOc1ccc(-c2cc3c(=O)n(CC(=O)Nc4ccc(Cl)cc4Cl)ccn3n2)cc1,-1.5
Cc1ccc2[nH]c(=O)c3cc(C(=O)NCCCN4CCC(C)CC4)sc3c2c1,-1.4
N#Cc1c(Nc2cccc(F)c2)sc(C(=O)c2ccc(Cl)cc2)c1N,0.5
COc1ccc(NC(=O)c2ccco2)cc1NC(=O)c1ccc(C#N)cc1F,0.79
Cc1ccc(-c2nnc3c4ccccc4c(C)nn23)cc1NC(=O)c1cccc(Br)c1,0.11
COc1ccc2oc(=O)c(C(=O)NCCc3c(C)[nH]c4ccc(C)cc34)cc2c1,-2.4
Cc1ccc(CNC(=O)CCCn2c(=O)c3ccccc3n(Cc3ccccc3C)c2=O)cc1,-0.19
CCOc1ccc(C2=NC(c3cccs3)=Nc3ccc(C(C)C)cc3N2)cc1,-1.9
CCCCSc1nc(N)cc(N2CCC(c3ncncc3C)CC2)n1,1.6
Cc1cc(C)n2ncc(-c3nccn3-c3ccc(CN4CCCC4)cc3)c2n1,-0.51
Cn1cc(CN(C(=O)NCc2cc(C(F)(F)F)ccc2F)C2CC2)cn1,-0.4
COC(=O)COc1ccc(Oc2nc(NC(C)(C)C)nc(N3CCOCC3)n2)nn1,-1.9
Cc1nc(-c2ccc(NC(=O)Cc3csc(C)n3)cc2)n[nH]1,-1.9
Nc1nc(Nc2ccccc2F)sc1C(=O)c1ccc(Cl)cc1,2
Cc1cccc(Cn2c(-c3cccs3)nc3ccccc32)c1,-0.39
COC(=O)C(NC(=O)CCc1c(C)nc2c(c(C)nn2-c2ccccc2)c1C)C(C)C (stereo not drawn),-1.4
CC[C@@H](C(N)=O)N1CCCC1=O,-1
CCCN(CCC)C(=O)CN1C(=O)CSc2ccc(S(=O)(=O)N3CCC(C)CC3)cc21,-1.5
CCc1ccc(CNC(=O)c2cc3c(=O)n(CC)c4ccccc4c3s2)cc1,1.9
Cc1cc(C)nc(CN(C)C(=O)c2coc(COc3cccc(F)c3)n2)c1,0.32

# From PubChem
